LANA-H2B inh = blocks KSHV LANA binding to histone H2A/H2B. Q9QR71. cell-free LANA-H2A/H2B peptide, fluorescence polarization. inhibition, % (test concentration not listed). actives 0.6% (n = 320,000); in the data active = inhibition mostly above about 10%, no sharp cut-off; inactive = mostly below about 6.7%;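 also: stock transfer was 7.5 nL into about 10 µL; 0% = median of vehicle wells and 100% = median of positive control wells; one replicate is shown; the record names a cut of 25% in any replicate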
UCH37 inh = blocks the human deubiquitinase UCH37 | Q9Y5K5 | purified proteasome/UCH37, Ub-AMC cleavage fluorescence | inhibition, % (test concentration not listed) | actives 0.33% (n = 330,000) | AID 588478;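 active = mean of two replicates above 20%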;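 also: 0% = compound-free wells with enzyme and 100% = wells lacking proteasome; stock transfer was 100 nL into about 20 µL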
Target sequence (Q9Y5K5 whole entry, looked up): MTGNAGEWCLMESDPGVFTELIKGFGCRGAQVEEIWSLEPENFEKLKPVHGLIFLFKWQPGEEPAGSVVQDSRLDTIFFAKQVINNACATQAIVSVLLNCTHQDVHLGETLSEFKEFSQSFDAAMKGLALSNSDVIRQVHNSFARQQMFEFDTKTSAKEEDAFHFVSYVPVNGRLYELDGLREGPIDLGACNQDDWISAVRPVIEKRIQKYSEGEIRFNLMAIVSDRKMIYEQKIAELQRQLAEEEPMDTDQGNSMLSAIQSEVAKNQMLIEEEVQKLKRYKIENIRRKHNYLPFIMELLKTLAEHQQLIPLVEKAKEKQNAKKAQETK
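System: Proteasome-associated human UCH37 deubiquitinase; Input: 0.15 nM proteasome in added enzyme buffer; Also added: Ub-AMC substrate from 1 µM stock; Incubation: 30 min compound-proteasome preincubation then 25 min substrate reaction, room temperature; Detection: fluorescence, ex 355 nm, em 460 nm; Read-out: % inhibition of Ub-AMC cleavage fluorescence; Benchmarks: no-proteasome and no-compound wells.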
Beta apoptosis = beta cell apoptosis inhibition; INS-1E cytokine-induced death, ATP luminescence, 48 h; percent of positive-control rescue, neutral wells zero; protection from apoptosis, % (test concentration not listed); actives 0.8% (n = 300,000);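 active = all replicates at 75% or more, or half of them and the mean; inconclusive = half reach 75% but not the mean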;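 also: 0% = cytokine-treated negative control wells and 100% = positive control rescue; higher means more ATP so stronger rescue from cytokine killing; wells of about 40 µL received 100 nL stock; the first replicate is given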
A1 inh = inhibitors of the anti-apoptotic protein A1, read as caspase activation. caspase activation, % (no concentration beside the values). actives 0.066% (n = 330,000). MEF A1-2A-BIM cells, Caspase-Glo 3/7 luminescence, 3 h; percent of clofoctol response, vehicle zero;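 active = over half of replicate activation scores above 10%, or exactly half above 10 with the replicate mean above 10; inconclusive = replicate mean below 10 yet half the replicates above 10; inactive = over half of replicates below 10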;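 also: wells of about 30 µL received 50 nL stock; many hits fall short of the cut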
Beta2AR agonist = agonists of human beta-2 adrenergic receptor inducing internalization; P07550; Am2.2-beta2AR cells, FAP receptor internalization, flow cytometry; reference of the scale not given here; response, % (test concentration not listed); actives 0.43% (n = 340,000);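 active = response above a set limit, near 3 SD of response in nonfluorescent compounds, cut at about 42% in these data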;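 also: stock transfer was 100 nL into about 11 µL; a reference agonist was the positive control; negative values mostly stem from fluorescent compounds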
Target sequence (P07550 whole entry, looked up): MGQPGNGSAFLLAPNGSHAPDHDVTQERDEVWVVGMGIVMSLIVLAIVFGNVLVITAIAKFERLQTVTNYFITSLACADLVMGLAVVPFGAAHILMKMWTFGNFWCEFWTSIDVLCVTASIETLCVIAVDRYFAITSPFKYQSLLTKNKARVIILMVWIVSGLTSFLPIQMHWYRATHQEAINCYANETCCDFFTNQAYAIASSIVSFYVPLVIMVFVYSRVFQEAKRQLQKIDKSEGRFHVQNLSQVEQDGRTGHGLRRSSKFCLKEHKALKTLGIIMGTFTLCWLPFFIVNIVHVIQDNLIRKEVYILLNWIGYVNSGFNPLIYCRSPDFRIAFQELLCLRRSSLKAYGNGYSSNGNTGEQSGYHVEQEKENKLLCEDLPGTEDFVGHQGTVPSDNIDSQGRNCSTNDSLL
T cruzi inh = blocks replication of Trypanosoma cruzi. T. cruzi beta-gal in NIH3T3, luminescence, 90 h. inhibition, % (concentration not given with the values). actives 1.4% (n = 300,000). AID 1885;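 active = mean inhibition across valid replicates above about 55%, limit read from the data; inconclusive = mean below that limit but half or more replicates reach it; inactive = mean below it, under half of replicates reach it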;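 also: signal also drops with host cell toxicity which is not excluded here; 0% = plate median of DMSO wells and 100% = zero luminescence signal; higher percent means less beta-gal luminescence so fewer parasites; stock transfer was 50 nL into about 50 µL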
Calb FLC = affects C. albicans growth with fluconazole; C. albicans CaCi-2 (fluconazole-resistant clinical isolate) + fluconazole, Alamar Blue growth, 48 h; AID 1979; actives 0.57% (n = 300,000); growth inhibition, % (no concentration beside the values);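 active = most replicates above 75%; inconclusive = exactly half above 75%; inactive = most below 75%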;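 also: all wells also contain fluconazole at 8 µg/ml as a sub-toxic cotreatment; 0% = median of DMSO wells and 100% = median of geldanamycin control wells; wells of about 8 µL received 7.5 nL stock; the first replicate is given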
RanGTP-Impb inh = disruptors of Ran-importin-beta complex formation – biochemical, FRET, CFP-Ran, YFP-importin-beta, homogeneous, primary screen | cell-free CFP-Ran/YFP-importin-beta FRET ratio | actives 1.1% (n = 300,000) | AID 2216 | inhibition, % (concentration not given with the values);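 active = most replicates above 15%; inconclusive = exactly half above 15%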;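 also: 0% = DMSO wells and 100% = Ran loaded with GDP instead of GTP; wells of about 40 µL received 100 nL stock; the first replicate is given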
Starred values were filed as active, the others as inactive; i = inactive; ? = inconclusive; · = no result given.

Screens in order – UCH37 inh, A1 inh, T cruzi inh, Beta2AR agonist, Calb FLC, RanGTP-Impb inh, LANA-H2B inh, Beta apoptosis
> COc1ccc(NC(=O)C2CCCN(S(=O)(=O)c3c(C)n[nH]c3C)C2)c(OC)c1 (stereo not given)
    1.5, 0.2, 6, 3, 3, -1.5, 1.0, -9
> Cc1ccccc1C(=O)N1CC(=O)Nc2ccc(F)cc2C1c1ccccc1 (stereo not given)
    -0.1, -0.4, -7, 3, -4, 1.7, -2.2, -3
> Cc1cccc(C(=O)Nc2ccc(S(=O)(=O)N3CCOCC3)cc2)c1[N+](=O)[O-]
    0.9, -0.4, -18, 0, -7, -0.4, 4.0, -1
> CCOc1ccc(CCNC(=O)CSc2ncn[nH]2)cc1OCC
    -0.5, 0.3, -14, -3, -11, 2.1, 0.1, 6
> O=C(COc1ccccc1Cl)NCCCNC(=O)c1ccncc1
    -0.8, -0.8, -9, -4, -1, -3.0, 0.2, ·
> COC(=O)CCCC1=CC2=C(c3ccccc3)C(=O)C(C)(OC(=O)C3CCCC3)C(=O)C2=CN1Cc1ccco1 (stereo not given)
    2.9, 1.2, -1, -5, 20, 2.7, 2.1, -6
> CCOc1ccc(NC(=O)CN(C)C(=O)Cc2ccsc2)cc1OCC
    ·, -0.7, ·, -2, ·, ·, 1.9, -3
> CCC(=O)Oc1ccc2ccccc2c1CNC(=O)c1ccccc1
    3.4, -0.1, 2, 7, -11, 0.2, -0.9, -5
> Clc1ccccc1CNCc1ccncc1
    4.1, 0.2, 21, 0, -8, -0.9, -0.3, -6
> COCCN(CCOC)C(=O)c1sc2nc(-c3ccccc3)cn2c1C
    2.9, -0.5, -6, 2, -8, 1.1, -1.4, 2
> CN(CC(=O)NC(=O)Nc1ccccc1F)Cc1ccccc1F
    3.5, -0.4, ·, 0, ·, ·, 2.2, -1
> CCOC(=O)C1(Cc2ccccc2)CCCN(Cc2cnn(CC)c2)C1 (stereo not given)
    0.1, 0.0, -2, 0, -13, -2.2, -0.3, -4
> Cc1ccc(NC(=O)CN(C)C(=O)Cc2c[nH]c3ccccc23)cc1
    1.9, -0.9, ·, -5, ·, ·, -0.9, -1
> C=CCn1c(-c2cccc(Cl)c2)n[nH]c1=S
    -7.0, -1.2, -10, 1, 17, -0.3, 4.6, -4
> Nc1ccc(C(=O)NNC(=O)C2COc3ccccc3O2)cc1[N+](=O)[O-] (stereo not given)
    1.6, 0.9, -8, 2, -5, 2.4, -0.3, -4
> CCOc1ccc2ccccc2c1/C=N\NC(=O)c1ccc([N+](=O)[O-])cc1
    ·, -0.2, -24, 4, 2, -1.1, 4.9, -2
> COc1ccc(OC(=O)c2cc3ccccc3o2)cc1
    1.0, -0.8, -2, -4, -11, -2.7, 1.6, 3
> COc1ccc2cc(C(C)C(=O)NC3CCC(O)CC3)ccc2c1 (stereo not given)
    7.2, 0.7, 13, 1, -12, 0.6, -0.3, 4
> O=c1c2c(n3cnnc3n1C1CCCCC1)-c1ccccc1CC21CCCCC1
    -3.7, -0.3, 15, 13, 3, -2.8, -1.5, -2
> CCN(CC)S(=O)(=O)c1ccc(-c2nnc(SCC(=O)N3c4ccccc4CC3C)o2)cc1 (stereo not given)
    2.9, -0.2, 32, 1, -30, 2.1, 1.4, -6
> O=C(NC1CC1)c1ccc(NS(=O)(=O)c2ccccc2)cc1
    2.5, -0.6, 0, -2, 0, 1.7, -2.4, -4
> Cc1csc(NC(=O)CSc2nccn2C)n1
    1.8, -1.2, -10, 1, -2, 1.1, -0.1, 1
> CCCC1c2ccc(C)n2CCN1C(=O)Nc1ccccc1Cl (stereo not given)
    -5.8, 0.1, -1, 8, -4, 4.2, 3.6, -2
> O=C(O)CCNC1C=CS(=O)(=O)C1 (stereo not given)
    3.8, 0.2, -6, -7, -31, 0.7, 0.3, 2
> CN(C)c1ccc(/C=c2/sc3n(c2=O)NC2(c4ccccc4)N(C)C(=O)N(C)C2(c2ccccc2)N=3)cc1 (stereo not given)
    ·, 1.5, -1, ·, -3, 20*, 1.2, 0
> O=C(COC(=O)c1cccs1)NCC1CCCO1 (stereo not given)
    -0.5, 0.1, -11, -1, 1, -1.0, 6.1, 5
> O=C(Nc1nc2ccccc2[nH]1)C1CCN(S(=O)(=O)c2cccs2)CC1
    2.4, -0.5, -1, -13, 2, 1.6, -2.0, 7
> COC(=O)[C@H](CCSC)NC(=O)NCc1ccccc1F
    4.5, 1.5, -10, 4, -14, 3.9, 0.4, -5
> Nn1c(SCc2cccc(F)c2)nnc1-c1ccncc1
    5.2, 0.2, -6, 0, 1, 2.0, 4.3, -2
> CCc1cccc(NC(=O)Cn2c(=O)c3cccn3c3ccccc32)c1
    -9.3, -0.7, 16, 3, -11, ?, -6.9, -8

(further entries)
Screens in order – UCH37 inh, A1 inh, T cruzi inh, Beta2AR agonist, Calb FLC, RanGTP-Impb inh, LANA-H2B inh, Beta apoptosis
> O/N=C/c1cccc[n+]1CCCCCC[n+]1ccccc1/C=N/O
    ·, 0.9, 21, -5, 3, 2.3, -2.2, -3
> Cc1cn(COC/C=C/c2ccccc2)c(=O)[nH]c1=O
    5.5, -0.1, -33, 6, -53, 3.4, -0.2, -1
> COc1ccc(C)cc1Nc1nnc(C)c(=O)[nH]1
    4.0, 0.6, 13, 3, -3, -4.8, 2.7, 1
> O=C(COc1ccccc1Cl)NNC(=O)Cn1[nH]c(=O)c2ccccc2c1=O
    1.6, -1.2, ·, 0, ·, ·, -1.3, -1
> CN1CCN(C(=O)c2cc3cc(F)ccc3[nH]2)CC1
    2.7, -0.2, 8, -3, -6, -3.1, -0.4, 2
> COc1ccc(CN2CCN(CCC(C)C)C(CCO)C2)cc1Cn1cccn1 (stereo not given)
    1.1, -0.1, 5, 11, -5, 4.9, 1.5, -5
> Cc1ccc(NC(=O)c2cc(Cl)ccc2[N+](=O)[O-])cc1C
    5.2, 0.7, -5, -3, -27, ?, 5.3, -4
> COc1ccc(C(CC(=O)c2ccccc2)S(=O)(=O)c2ccc(C)cc2)cc1 (stereo not given)
    -1.7, -3.7, -1, 11, 3, 3.0, 3.8, -3
> CCN(CC)c1ccc(S(=O)(=O)N2CCOCC2)cc1NC(=O)COC(=O)COc1ccccc1C
    2.0, -0.5, -4, 0, 9, 7.7, -6.2, -3
> Cc1cc(C)c(NC(=O)C2CCCN2CCC(C)C)c(C)c1 (stereo not given)
    4.3, 1.1, 4, 5, -12, -1.0, -0.7, 3
> COC(=O)CSc1nnc(-c2cccnc2)n1C
    4.2, 2.3, -11, 6, -1, 0.7, 2.6, -6
> COc1ccc(Cc2nc3ccc(C(=O)N4CCC(N(C)C)C4)cc3o2)cc1 (stereo not given)
    3.5, 0.1, 3, -5, 6, ?, -0.3, -9
> Cc1cc(C)c(C#N)c(SCCN2CCCCC2)n1
    3.0, -2.0, 6, -2, -3, -2.6, 0.1, 0
> COc1cccc(-c2nc(CS(=O)CC(=O)NCCc3ccccc3)c(C)o2)c1 (stereo not given)
    1.1, -0.3, 4, 13, 4, -2.9, 5.5, 0
> CCCCCCCCCCCCN1[C@@H](CC(C)=O)c2cc(F)cc(F)c2S1(=O)=O
    0.9, -0.7, 39, 1, -1, -0.3, 6.3, 25
> COc1ccc(C(=O)NCCOC(C)C)cc1OC1CCN(C(C)=O)CC1
    1.0, -0.4, 8, 1, 3, -1.7, 1.2, ·
> CCSc1nnc(Cn2c(=O)sc3ccccc32)n1-c1ccc(OC)cc1
    7.4, -0.4, 2, -1, 0, 1.1, -1.4, -9
> COCCc1nnc(NC(=O)Cc2ccccc2)s1
    2.4, 0.0, -7, -6, 2, 5.3, 0.7, 0
> Cc1oc(-c2ccc3c(c2)OCCO3)cc1C(=O)NCC(=O)O
    -1.3, -6.7, -13, 0, -1, 2.9, -2.8, 2
> CN(C)N1C(N)=C(C#N)C(c2ccc3c(c2)OCO3)C2=C1CCCC2=O (stereo not given)
    0.3, 0.3, 2, -6, 6, 0.5, -3.7, -6
> CN(C)c1ccc(C(=O)NCc2ccc3c(c2)CCO3)cc1
    ·, 0.5, 8, 8, 23, 2.3, -0.8, 0
> O=C(CN1C(=O)NC2(CCCC2)C1=O)N1CCN(S(=O)(=O)c2ccccc2F)CC1
    2.6, -1.5, -11, 2, 1, -2.4, -1.3, -2
> O=C(CSc1nnc(-c2cccnc2)n1Cc1ccccc1)NCc1ccccc1
    1.0, 0.6, -2, 0, -3, -4.4, -1.2, -1
> CNC(=O)COC(=O)c1ccccc1Oc1ccccc1
    2.9, 0.3, -4, 4, 5, -1.5, -3.6, 2
> NC(=O)CC(NC(=O)Cc1ccc(Cl)cc1)c1ccc(NCc2ccccc2)c([N+](=O)[O-])c1 (stereo not given)
    0.2, -0.1, 1, -7, -6, 1.2, 3.3, 3
> Cc1cnc(NC(=O)Cc2ccc(Br)cc2)s1
    2.7, 0.2, -26, -11, -5, -0.2, -8.4, -16
> COc1ccc(OC)c(/C=N/NC(=O)c2nnn(-c3nonc3N)c2-c2cccs2)c1
    ·, -0.3, 3, 8, -3, 3.3, 3.1, 2
> O=C(CN1C(=O)NC(CCc2ccccc2)C1=O)Nc1ccc(F)c(F)c1F (stereo not given)
    1.0, 0.8, ·, 0, ·, ·, -7.7, -2
> O=C(O)CS(=O)CC(=O)NCc1cccc(C(F)(F)F)c1 (stereo not given)
    3.4, -2.0, 4, i, 10, -0.6, -3.5, 7
> O=C(CSc1c2c(nc3ccccc13)CCCC2)NCc1ccco1
    4.2, -0.8, 31, 2, 12, 9.9, 4.6, -10
> CCC1C(=O)c2ccccc2N(C)C1=O (stereo not given)
    -3.3, 0.8, -14, -4, -3, -0.5, -8.2, -6
> CCCC(=O)NC(c1ccc(OC)cc1)c1c(O)ccc2ccccc12 (stereo not given)
    -7.9, 0.4, 0, -5, -6, 1.9, -0.8, 1
> O=C(Nc1ccccc1C(=O)O)c1ccc(NC(=O)C2CCCO2)cc1 (stereo not given)
    5.0, -5.0, -3, -8, -6, 1.1, -1.3, -6
